Env fusion inh = HIV envelope-mediated fusion inhibition. actives 1.1% (n = 360,000). HeLa-JRFL Env/CEM21 cell fusion, luciferase. inhibition, % at 12.3 µM;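 active means mean replicate inhibition score of at least 50 and every replicate individually at or above 50; inconclusive means only one of the two criteria met; inactive means mean below 50 and not all replicates reaching 50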;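 further: 0% = plate neutral controls and 100% = maraviroc near 300 nM; one replicate is shown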
eIF4H inh = inhibitors of RNA binding by human eIF4H; eIF4H fluorescence polarization binding assay; inhibition, % at 35 µM; actives 0.94% (n = 290,000);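 active means 50% or more with normal probe brightness, or confirmed in later tests; inconclusive means above 50% with abnormal brightness, or retests that disagree; inactive means below 50% or failed in later tests; about a fifth of its hits are not listed in these tables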;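 further: calls also rest on retests at 20 µM and on dose response follow-up; 0% = protein and probe with vehicle and 100% = probe without protein; strong numbers were not always called active; many hits fall short of the cut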
MT1-MMP act inh = inhibitors of human MT1-MMP activation; actives 0.061% (n = 360,000); HT1080 RFP-PRO-GFP cells, GFP/RFP ratio fluorescence, overnight; percent of plate control window, DMSO zero; GFP/RFP ratio change, % at 20 µM;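 active means GFP/RFP ratio change of at least 30% with cell ATP level not reduced by more than half and red fluorescence within 50% of control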; further: strong numbers were not always called active
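Compound: 20 µM single dose, 1% DMSO / System: HT1080 RFP-PRO-GFP cells / Controls: DMSO and RFP-L50D-GFP cell wells / Read-out basis: GFP/RFP fluorescence ratio / Schedule: overnight compound exposure at 37 °C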
Rce1 inhib = yeast Ras-converting enzyme inhibition; yeast membranes, quenched prenylated peptide cleavage fluorescence; calls only; actives 0.27% (n = 290,000);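 active means fall in fluorescence gain of 50% or more versus controls, with final raw signal at or below 3038400; inconclusive means same 50% fall but final raw signal above 3038400; inactive means fall in fluorescence gain under 50%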;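 further: plate controls were neutral control wells for no effect and wells lacking membranes for full effect; tested at 10 µM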
Target sequence (Q03530 whole entry, looked up): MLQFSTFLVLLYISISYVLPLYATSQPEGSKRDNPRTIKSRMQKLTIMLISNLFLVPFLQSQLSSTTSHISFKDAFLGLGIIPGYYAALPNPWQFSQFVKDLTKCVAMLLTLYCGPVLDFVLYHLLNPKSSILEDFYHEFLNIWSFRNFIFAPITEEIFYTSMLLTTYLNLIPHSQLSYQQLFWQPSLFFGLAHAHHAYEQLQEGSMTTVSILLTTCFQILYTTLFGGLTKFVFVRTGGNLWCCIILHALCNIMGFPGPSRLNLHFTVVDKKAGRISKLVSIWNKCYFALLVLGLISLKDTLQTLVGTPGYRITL
CSC inhib = blocks cancer stem cells. cancer stem cell-like cells viability, luminescence. inhibition, % at 7.5 µM. actives 1.1% (n = 300,000);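 active means mean at 75% or more and at least half the replicates too; inconclusive means mean and replicates disagree; tested in HMLE shEcad cells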;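 further: 0% = median of negative and 100% = median of positive control wells; the first replicate is given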
Yeast UUG start = yeast start codon fidelity modulation. S. cerevisiae UUG-firefly luciferase reporter, luminescence/redox ratio. actives 0.13% (n = 350,000). activity score, % at 18.7 µM;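 active means replicate mean at a twofold rise or more, about +100% in these data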;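 further: firefly luciferase made from a UUG start codon reports start codon fidelity; reporter light over untreated wells divided by growth signal over untreated wells; some hits fall short of that in this replicate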
PABP polyA inh = blocks human PABP binding to poly(A) RNA; P11940; AID 2014; fluorescence polarization; actives 1% (n = 290,000); inhibition, % at 35 µM;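 active means 50% or more with normal probe brightness, or confirmed in later tests; inconclusive means above 50% with abnormal brightness, or retests that disagree; inactive means below 50% or failed in later tests; about a fifth of its hits are not listed in these tables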;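 further: calls also rest on retests at 20 µM and on dose response follow-up; controls were probe without protein and protein plus probe with vehicle; some compounds called inactive have numbers as strong as hits; many hits fall short of the cut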
Target sequence (P11940 whole entry, looked up): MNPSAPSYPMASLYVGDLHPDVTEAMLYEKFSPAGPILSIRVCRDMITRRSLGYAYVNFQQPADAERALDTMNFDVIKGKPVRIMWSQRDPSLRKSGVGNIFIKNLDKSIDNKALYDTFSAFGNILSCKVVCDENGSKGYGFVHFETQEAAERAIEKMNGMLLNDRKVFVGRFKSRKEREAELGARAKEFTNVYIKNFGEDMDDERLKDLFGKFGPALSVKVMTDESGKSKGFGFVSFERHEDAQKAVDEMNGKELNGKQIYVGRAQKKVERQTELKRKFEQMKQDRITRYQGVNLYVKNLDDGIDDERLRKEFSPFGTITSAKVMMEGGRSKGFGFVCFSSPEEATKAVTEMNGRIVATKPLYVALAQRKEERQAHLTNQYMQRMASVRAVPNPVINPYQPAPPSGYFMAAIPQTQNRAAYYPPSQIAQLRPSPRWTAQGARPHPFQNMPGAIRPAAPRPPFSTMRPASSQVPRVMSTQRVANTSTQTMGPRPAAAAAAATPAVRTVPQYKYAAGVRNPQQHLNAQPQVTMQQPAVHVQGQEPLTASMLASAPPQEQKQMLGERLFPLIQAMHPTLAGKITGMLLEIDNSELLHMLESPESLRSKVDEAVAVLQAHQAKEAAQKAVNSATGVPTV
eIF4H inh retest = second read-out of eIF4H inh, no call of its own (marks repeat the call); inhibition, %; compound at 20 µM; confirmation average;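 mean of two retest wells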
PABP polyA inh retest = further read-out of PABP polyA inh, marked with its call; inhibition, %; compound at 20 µM; confirmation repeats;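 mean of two retest wells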
MT1-MMP act inh RFP = recorded beside MT1-MMP act inh, whose call it bears; RFP signal change, %; measured here: RFP expression control read;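 0 = vehicle wells; hits needed this value within 50% of zero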
* = called active by the depositor; i = inactive; ? = inconclusive; . = not tested or not shown; & = joins results of further samples.

SMILES	Env fusion inh	eIF4H inh	MT1-MMP act inh	MT1-MMP act inh RFP	Rce1 inhib	CSC inhib	Yeast UUG start	PABP polyA inh	others
Nc1cccc2c1C(=O)N(C(=O)/C=C/c1cccc(Br)c1)C2=O	-118	12	-4	3	i	.	-14	8
O=C(COc1ccc(S(=O)(=O)Nc2ccccc2)cc1)N1CCOCC1	.	-7	-5	1	i	-8	-9	-2
O=C(c1ccc(S(=O)(=O)N2CCCCC2)cc1)N(c1ccccn1)C1CCCCC1	2	-8	2	-1	i	14	.	-4
O=C(O)c1cc(Cl)c(Cl)cc1C(=O)Nc1cccnc1	-1	-4	.	.	i	-8	.	9
CCOc1ccc(CN(C)C(=O)CNC(=O)c2cc(OC)c(OC)c(OC)c2)cc1	-1	-10	4	9	i	-12	0	-7
COc1ccc([C@H](C)NC[C@H](O)c2ccc(O)c(NC=O)c2)cc1	.	12	0	1	i	-10	-10	3
Cn1c(=O)c2c(nc(SCC(=O)N3CCCCCC3)n2C)n(C)c1=O	-35	2	1	2	i	-12	-7	-1
CSc1nc(-c2ccco2)nn1C(=O)CCc1ccccc1	-83	-8	-2	0	i	-5	1	7
COc1ccccc1N(C)S(=O)(=O)c1ccc(C)c(C(=O)NCc2ccccn2)c1	17	.	0	-3	.	-4	-11	.
CCOC(CNC(=O)C(=O)NCC(c1ccco1)N1CCN(c2ccc(OC)cc2)CC1)OCC (centres undefined)	-4	-11	2	1	i	6	14	2
CC(Oc1ccc(Cl)cc1Cl)C(=O)Nc1ccc(N2CCN(C)CC2)cc1 (centres undefined)	-12	2	-6	-8	i	56	-9	7
CC(C)(C(=O)N1CCC1(C)C(=O)NS(=O)(=O)c1ccc(Cl)s1)c1ccccc1 (centres undefined)	-3	.	-2	5	.	.	6	.
COc1ccc(S(=O)(=O)/C(C#N)=C/Nc2cccc(OC)c2)cc1	13	-1	5	7	i	2	-8	-9
O=Cc1cn[nH]c1-c1cccc([N+](=O)[O-])c1	8	-1	4	-2	i	.	.	-9
COc1ccc(S(=O)(=O)CCC(=O)NC2CCCCC2)cc1	.	8	1	-3	i	-16	-14	-7
CCC1CCCCN1C(=S)NCc1ccccc1 (centres undefined)	.	3	2	6	i	-3	.	-11
CC1(C)CC(NC(=O)CSc2ccccc2)CC(C)(C)N1	-10	11	2	1	i	-1	.	-2
O=C(CN1CCN(Cc2ccccc2)CC1)Nc1ccc(S(=O)(=O)N2CCOCC2)cc1	4	-1	1	2	i	-12	-26	-1
CN(C)S(=O)(=O)c1ccc(NC(=O)CNc2cc(S(=O)(=O)N3CCCC3)ccc2OCC(F)(F)F)cc1	-38	3	0	-5	i	-15	5	1
CC(C)NC(=O)c1ccc2sc([C@@H]3O[C@H](CO)[C@H](O)[C@H](O)[C@H]3O)nc2c1	-11	.	-1	0	.	.	43	.
CCOc1ccc(CCNC(=O)CCc2nc(-c3ccc(C)cc3)no2)cc1OCC	.	-2	5	-4	i	-14	-16	-3
Brc1ccc(C2=CC(c3ccco3)n3ncnc3N2)cc1 (centres undefined)	.	?	-255	0	i	-6	.	?
O=C(Nc1nc2c(s1)CCCC2=O)c1cnccn1	-62	-11	3	1	i	.	-6	2
O=C(O)COc1ccc2oc3c(c2c1)CCCC3	-2	-2	-1	4	i	-20	-5	-8
CN(CCn1ccnc1)Cc1cn(-c2ccccc2)nc1-c1ccc2c(c1)OCO2	3	4	6	2	i	0	.	-6
Remaining list, next part
SMILES	Env fusion inh	eIF4H inh	MT1-MMP act inh	MT1-MMP act inh RFP	Rce1 inhib	CSC inhib	Yeast UUG start	PABP polyA inh	others
COc1ccc(-c2cc(C(F)(F)F)n3nc(C(=O)N4CCOCC4)c(Cl)c3n2)cc1	.	1	5	5	i	-9	-54	-14
Cc1cc([N+](=O)[O-])nn1CC(=O)N1CCCc2ccccc21	-14	1	6	5	i	-8	-23	14
CC1(C)C2CCC1(C)C(OC(=O)c1ccc(O)cc1)C2 (centres undefined)	.	0	-10	-5	i	-4	-19	-4
O=c1[nH]c2cccnc2n1Cc1ccccc1	.	15	-2	1	i	-10	-21	8
Cc1cc(OCc2cn3cccnc3n2)ccc1Cl	23	1	3	-4	i	9	.	-5
O=C(COC(=O)CCCN=C1NS(=O)(=O)c2ccccc21)NC(=O)NC1CCCC1	8	0	6	7	i	-4	.	-8
CCC(=O)c1ccc(CCCCCC(=O)O)s1	.	47	3	6	i	1	-12	26
Cc1ccc(S(=O)(=O)N/N=C/c2cc([N+](=O)[O-])ccc2O)cc1[N+](=O)[O-]	-31	-1	8	5	i	13	.	80	eIF4H inh retest=-9;PABP polyA inh retest=14
COc1ccc(C(OC(=O)c2ccco2)C(=O)NC(C)(C)C)cc1 (centres undefined)	2	-2	1	2	i	-8	-7	7
O=C(NC(=S)Nc1ccc(N2CCOCC2)cc1)c1ccccc1	-19	2	3	-2	i	-20	-27	8
CC(=O)Nc1ccc(N2CCc3c(C)c(C#N)c4nc5ccccc5n4c32)cc1	.	?	.	.	i	40	.	-6
O=C(c1ccc(N2CCOCC2)cc1[N+](=O)[O-])N1CCOCC1	?	-7	1	5	i	-9	.	-1
CC(=O)Nc1ccc(S(=O)(=O)N[C@@H](C)C(=O)OCc2ccc(Cl)cc2)cc1	.	3	4	3	i	-17	.	0
O=C(c1cccc(Br)c1)c1cn(-c2ccccc2)nc1C(=O)c1ccccc1	-3	-6	-14	-6	i	12	-5	47
CCN(CC)CCNC(=O)c1cc(-c2ccco2)nc2ccccc12	4	31	-3	-1	i	-9	.	-10
COc1ccc(S(=O)(=O)CC2(O)CCN(C(=O)C(C)(C)C)CC2)cc1	1	-10	3	2	i	.	-12	8
CCc1nc(NCc2cccs2)c2nnn(Cc3ccccc3)c2n1	19	.	1	2	.	.	-7	.
Cc1ccc(N(CC(=O)N2CCn3c2nc2ccccc23)S(=O)(=O)c2c(C)n[nH]c2C)cc1	-9	-1	2	3	i	5	-12	6
O=C(Cn1cnc2c(nnn2Cc2ccccc2F)c1=O)OCc1ccccc1	-8	-19	0	-1	i	-9	-20	-6
COc1ccccc1N(CC1CO1)S(=O)(=O)c1ccccc1 (centres undefined)	0	-7	-1	3	i	-1	-6	-6
COc1cc(OC)c(NC(=O)CC(=O)Nc2cc(Cl)c(OC)cc2OC)cc1Cl	-19	18	1	-3	i	25	-10	20
CCCOC(=O)c1ccc(NC(=O)/C=C/c2cccs2)cc1	8	-1	-6	-18	i	-8	-1	8
COc1ccc(OC)c(NC(=O)CCCc2ccccc2)c1	-11	-11	3	-1	i	-9	0	-3
COC(=O)CCC(=O)NC(=S)Nc1sc(C)c(C)c1C(N)=O	-13	?	14	-5	i	1	.	0
CCOC(=O)c1c(N=CN(C)C)c2cc([N+](=O)[O-])cnc2n1C	17	-5	-2	-2	i	-3	-19	3
New compounds follow.
SMILES	Env fusion inh	eIF4H inh	MT1-MMP act inh	MT1-MMP act inh RFP	Rce1 inhib	CSC inhib	Yeast UUG start	PABP polyA inh	others
Cc1cc(C)c2c(C)nn(-c3ccccc3)c2n1	-38	-2	-3	-2	i	-3	-15	-5
Cc1cc(C)cc(NC(=S)NC(=O)Cc2ccccc2)c1	-6	.	2	2	i	-10	-25	.
O=C(CN1C(=O)NC2(CCCCCC2)C1=O)Nc1ccccc1[N+](=O)[O-]	10	.	-1	4	.	5	.	.
Cc1cc(/C=C2\SC(=S)NC2=O)c(C)n1-c1ccc(O)cc1	-50	70	-58	7	i	17	.	58	eIF4H inh retest=7;PABP polyA inh retest=2
O=C1C=C(c2ccccc2)OC2(CCCC2)O1	-23	-4	1	3	i	-5	1	0
CC1=C(C(=O)N(C)C)CC(CC(=O)NC2CCCCC2)C(=O)N1Cc1ccc(F)cc1 (centres undefined)	-49	.	1	1	.	.	-8	.
Cc1noc(C)c1NC(=O)N(C)C[C@@H]1OCc2cnnn2CCCC(=O)N([C@H](C)CO)C[C@@H]1C	-27	.	2	7	.	.	-20&-9	.
CC1(C)CN=c2s/c(=C\c3ccc(Cl)cc3)c(=O)n2C1	-23	10	9	-2	i	10	-5	98	eIF4H inh retest=2;PABP polyA inh retest=-6
C#Cc1cccc(NC(=O)c2ccc3c(c2)C(=O)N(Cc2cccnc2)C3=O)c1	-6	11	-3	0	i	-3	-18	5
CCCc1cc(=O)oc2cc(OCc3nn[nH]n3)ccc12	-22	-3	-2	3	i	-13	-13	0
C=CCNC(=O)c1ccc(-c2ccc([N+](=O)[O-])cc2)o1	-17	-3	-2	0	i	-5	-22	-5
Cc1ccc(C(=O)N2CCN(C3c4cccc5cccc(c45)C3NS(=O)(=O)c3ccccc3)CC2)cc1 (centres undefined)	.	-2	-17	-16	i	7	-10	4
CC(=O)C1C(c2ccc3ncccc3c2)NC(=O)NC1(O)C(F)(F)F (centres undefined)	.	0	0	8	i	-5	.	-3
CC(=O)c1cc(C(=O)Nc2ccc3ccccc3c2)c(C)o1	12	1	4	8	i	-7	.	4
O=C(/C=C/c1ccccc1)N/C(=C\c1ccco1)C(=O)O	9	1	-5	2	i	-12	-18	9
CC1=C(Nc2ccc(C(=O)O)cc2)C(=O)c2ccccc2C1=O	-3	6	5	7	i	19	-9	12
CCOC(=O)C1(Cc2ccccc2C(F)(F)F)CCN(C2CCN(C(C)C)CC2)CC1	9	11	8	1	i	23	.	7
CN(C(=S)Nc1ccc(Oc2ccccc2)cc1)c1ccc(O)cc1	17	31	14	3	i	12	-20	-2
CC(c1nnnn1C1CCCCC1)N(Cc1ccccc1)Cc1cccnc1 (centres undefined)	.	0	1	-2	i	-18	-6	10
COc1cc(C(=O)NCCSc2ccc(F)cc2)cc(OC)c1OC	-2	0	5	-4	i	-9	-4	44
CCOC(=O)C1=C(C)NC2(O)c3ccccc3C(=O)C12O (centres undefined)	-62	-1	10	7	i	-5	-13	-2
Cc1cc([N+](=O)[O-])nn1CC(=O)NCc1cccs1	.	7	1	6	i	-7	-12	3
CCC(C)(NC(=O)Cc1c[nH]c2ccccc12)C(=O)NC1CCCCC1 (centres undefined)	3	8	0	2	i	9	8	-4
CCN1CCN(C(=S)NC(=O)c2cc(OC)c(OC)c(OC)c2)CC1	-7	.	1	0	.	-8	-22	.
CC1CC(=O)N(CC(=O)Nc2ccc3c(c2)OCCO3)c2ccccc2S1 (centres undefined)	.	-8	1	1	i	1	8	3
Cc1ccc(-c2cc(C(=O)N/N=C/C=C/c3ccccc3)n[nH]2)s1	18	2	5	2	i	66	-11	6
CN1CCN(CC#CC2(O)CCCCC2)CC1	.	-9	5	-1	i	-12	-24	-7
COc1ccc(S(=O)(=O)N2CCN(C3CCCCCCC3)CC2)cc1	6	-8&2	8&6	6&3	i	38	-17	2&1
COc1ccc(C(=O)N2CCN(CCc3ccccn3)CC2)cc1	8	-6	-6	-3	i	1	8	-4

Part of the list above in order of formula weight, rising:
SMILES	Env fusion inh	eIF4H inh	MT1-MMP act inh	MT1-MMP act inh RFP	Rce1 inhib	CSC inhib	Yeast UUG start	PABP polyA inh	others
Cc1cc([N+](=O)[O-])nn1CC(=O)NCc1cccs1	.	7	1	6	i	-7	-12	3
O=C(/C=C/c1ccccc1)N/C(=C\c1ccco1)C(=O)O	9	1	-5	2	i	-12	-18	9
Cc1ccc(-c2cc(C(=O)N/N=C/C=C/c3ccccc3)n[nH]2)s1	18	2	5	2	i	66	-11	6
CC(c1nnnn1C1CCCCC1)N(Cc1ccccc1)Cc1cccnc1 (centres undefined)	.	0	1	-2	i	-18	-6	10
CCOC(=O)C1(Cc2ccccc2C(F)(F)F)CCN(C2CCN(C(C)C)CC2)CC1	9	11	8	1	i	23	.	7

These rows are one share of the data; the hit share may differ from the screen's.
